# FGF22 binding: FGF22 (human) thermal shift binding | recombinant FGF22 thermal shift, SYPRO orange fluorescence; percent of sucrose octasulfate shift, DMSO zero | calls only at 9.99 µM | 340,000 compounds, 1.5% hits | AID 651658;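 active = melting point raised past a set limit in the mean and every replicate; three in four hits are not shown here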
# Target sequence (Q9HCT0 whole entry, looked up): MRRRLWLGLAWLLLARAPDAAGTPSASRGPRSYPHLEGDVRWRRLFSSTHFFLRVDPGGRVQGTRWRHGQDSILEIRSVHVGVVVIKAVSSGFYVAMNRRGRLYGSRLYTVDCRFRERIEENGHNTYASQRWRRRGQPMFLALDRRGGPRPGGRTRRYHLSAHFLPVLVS
# Calls only; i = inactive; + = active, no number. Not all compounds are listed; count on the stated rates, not on these rows.
SMILES,FGF22 binding
Cc1noc(C)c1NC(=O)N(C)C[C@@H]1OCCCC[C@@H](C)Oc2ccc(NC(=O)CCC(F)(F)F)cc2C(=O)N([C@H](C)CO)C[C@@H]1C,i
Cc1ccccc1S(=O)(=O)N(C)C[C@H]1OCc2ccccc2-c2c(n(C)c3ccccc23)C(=O)N([C@H](C)CO)C[C@@H]1C,i
COc1ccc2c3c([nH]c2c1)[C@H](CO)N(C)CC31CCN(C(=O)c2ccccn2)CC1,i
Cc1ccc(S(=O)(=O)N(C)C[C@@H]2OCCCC[C@H](C)Oc3ccc(NS(=O)(=O)c4cn(C)cn4)cc3C(=O)N([C@@H](C)CO)C[C@H]2C)cc1,i
CC(C)CC#Cc1ccc2c(c1)O[C@H](CN(C)Cc1cccnc1)[C@H](C)CN([C@@H](C)CO)S2(=O)=O,i
O=C(Nc1ccc(F)cc1)N1CCCCN2[C@H](CO)[C@@H](c3ccc(-c4ccncc4)cc3)[C@@H]2C1,i
C[C@H](CO)N1C[C@H](C)[C@H](CN(C)Cc2ccc3c(c2)OCO3)Oc2ccc(NC(=O)Cc3cn(C)c4ccccc34)cc2C1=O,i
COc1ccc(S(=O)(=O)Nc2ccc3c(c2)C(=O)N([C@@H](C)CO)C[C@H](C)[C@@H](CN(C)CC2CCCCC2)O3)cc1,i
CO[C@H]1CN(C)C(=O)c2cc(NS(C)(=O)=O)ccc2OC[C@H](C)N(C)C[C@@H]1C,i
CO[C@H]1CN(C)C(=O)c2ccc(NC(=O)C3CCC3)cc2OC[C@@H](C)N(Cc2ccncc2)C[C@@H]1C,i

# Shown tab-delimited: part of the list above
Molecule	FGF22 binding
Cc1ccccc1S(=O)(=O)N(C)C[C@H]1OCc2ccccc2-c2c(n(C)c3ccccc23)C(=O)N([C@H](C)CO)C[C@@H]1C	i
COc1ccc2c3c([nH]c2c1)[C@H](CO)N(C)CC31CCN(C(=O)c2ccccn2)CC1	i

# Following part.
SMILES,FGF22 binding
CC(C)CNc1cccc2c1S(=O)(=O)N[C@H](C)CO2,i
C[C@@H](O)C#Cc1ccc([C@H]2[C@@H](CO)N3CCCCN(C(=O)c4cccc(F)c4)C[C@H]23)cc1,i
Cc1noc(C)c1S(=O)(=O)N(C)C[C@H]1Oc2ccc(NC(=O)Cc3ccccc3)cc2CC(=O)N([C@H](C)CO)C[C@H]1C,i
O=C(O)C[C@H]1CC[C@H](NC(=O)c2ccncc2)[C@H](CO)O1,i
C[C@H]1CN([C@@H](C)CO)C(=O)c2cc(C#Cc3cccc(F)c3)cnc2O[C@H]1CN(C)CC1CCOCC1,i
Cc1ccc(NC(=O)N2c3ccccc3SC2c2ccco2)c(C)c1 (stereo not drawn),i
C[C@H]1CN([C@@H](C)CO)C(=O)c2cccc(NC(=O)C3CCOCC3)c2O[C@H]1CN(C)C,i
CC=Cc1ccc2n(c1=O)C[C@@H]1[C@@H](CO)[C@H](C(=O)NC3CCC3)[C@H]2N1S(=O)(=O)c1cn(C)cn1 (mixture of isomers),i
CCCN1C[C@@H](C)[C@H](OC)CN(C)C(=O)c2cc(NC(=O)NC3CCCCC3)ccc2OC[C@@H]1C,i
C[C@H](CO)N1C[C@H](C)[C@@H](CN(C)CC2CC2)Oc2ccc(NC(=O)CCCN(C)C)cc2CC1=O,i
Cc1ccc(-c2cnc3c(c2)C(=O)N([C@H](C)CO)C[C@H](C)[C@@H](CN(C)C(=O)c2ccncc2)O3)cc1,i
C[C@@H]1CN([C@H](C)CO)C(=O)c2cc(NC(=O)Nc3cccc4ccccc34)ccc2O[C@@H](C)CCCCO[C@H]1CN(C)C(=O)C1CCCCC1,i
O=C(C1CCCC1)N1C[C@H]2[C@@H](c3ccccc31)[C@H](CO)N2C(=O)c1ccccc1,i
Cc1cc(N2CCN(C(=O)OC(C)(C)C)C[C@H]2C)ccc1N1CCS(=O)(=O)CC1,i
C[C@@H]1CN([C@H](C)CO)S(=O)(=O)c2ccc(C3=CCCC3)cc2O[C@H]1CN(C)CC1CCOCC1,i
CC(C)C#Cc1ccc([C@@H]2[C@@H](CO)N3CCCCN(C(=O)Nc4ccccc4)C[C@H]23)cc1,i
CCC(=O)Nc1ccc2c(c1)OC[C@H](C)N(Cc1cccnc1)C[C@@H](C)[C@@H](OC)CN(C)C2=O,i
O=C(C[C@H]1CC[C@H]2[C@@H](COC[C@H](O)CN2C(=O)Nc2ccc(C(F)(F)F)cc2)O1)NCCc1ccncc1,i
CCC(=O)N(C)C[C@H]1Oc2cc(C#CCC(C)C)ccc2S(=O)(=O)N([C@H](C)CO)C[C@@H]1C,i
Cc1ccc(S(=O)(=O)Nc2ccc3c(c2)C(=O)N([C@H](C)CO)C[C@@H](C)[C@@H](CN(C)S(=O)(=O)c2ccc(C)cc2)O3)cc1,i
CCCC#Cc1cnc2c(c1)C(=O)N([C@@H](C)CO)C[C@H](C)[C@@H](CN(C)C(=O)Nc1c(C)noc1C)O2,i
CO[C@@H]1CC[C@@H]2CCN(C)C(=O)[C@H](C)[C@H](OC)CN(C)C(=O)c3cc(C#N)ccc3OC[C@@H]1O2,i
O=C(C[C@@H]1CC[C@H]2[C@@H](COC[C@H](O)CN2CC2CCCCC2)O1)NCC1CC1,i
C[C@H](CO)N1C[C@H](C)[C@H](CN(C)Cc2ccc(-c3ccccc3)cc2)Oc2ccc(NC(=O)c3ccncc3)cc2CC1=O,i
C[C@@H]1CCCCO[C@@H](CN(C)S(=O)(=O)c2ccccc2)[C@@H](C)CN([C@H](C)CO)C(=O)c2cc(NC(=O)c3ccncc3)ccc2O1,i
CC(C)C#Cc1ccc([C@H]2[C@@H](CO)N3CCCCN(C(=O)Nc4ccccc4)C[C@@H]23)cc1,i
CCN1[C@H](C(=O)N[C@H](C)c2ccccc2)[C@@H](CO)[C@@H]2Cn3c(ccc(-c4cccc(F)c4)c3=O)[C@@H]21,i
CCCN1CCC2(CC1)CN(Cc1ccccc1OC)[C@@H](CO)c1c2c2ccc(OC)cc2n1C,i
C[C@H]1CCCCO[C@H](CN(C)C(=O)Nc2ccc(F)cc2)[C@@H](C)CN([C@@H](C)CO)C(=O)c2cc(NC(=O)CCC(F)(F)F)ccc2O1,i
C[C@H](O)C#Cc1cnc2c(c1)C(=O)N([C@H](C)CO)C[C@@H](C)[C@H](CN(C)C(=O)c1ccccc1)O2,i
C[C@H]1CN([C@@H](C)CO)C(=O)c2cccc(NC(=O)CCCCCC(=O)Nc3ccccc3N)c2O[C@H]1CN(C)CC1CCCCC1,i
COc1ccccc1-c1cnc2c(c1)C(=O)N([C@H](C)CO)C[C@H](C)[C@H](CN(C)Cc1cccc(F)c1)O2,i
C[C@H](CO)N1C[C@H](C)[C@H](CN(C)C(=O)Nc2ccc3c(c2)OCO3)Oc2ncc(C#Cc3ccc(F)cc3)cc2C1=O,i
COC(=O)N1Cc2ccnnc2CC1c1ccccc1-c1ccccc1 (stereo not drawn),i
COCCNC(=O)c1cc2c(c(-c3cccc(C4=CCCC4)c3)n1)[C@H](CCO)N([S@@](=O)C(C)(C)C)C2,i
COCC#Cc1cnc2c(c1)C(=O)N([C@@H](C)CO)C[C@H](C)[C@H](CN(C)C(=O)Nc1ccccc1F)O2,i
CCNC(=O)C[C@@H]1CC[C@H]2[C@@H](COC[C@@H](O)CN2S(=O)(=O)c2ccccc2F)O1,i
C[C@@H]1CCCCO[C@H](CN(C)S(=O)(=O)c2ccc(Cl)cc2)[C@@H](C)CN([C@H](C)CO)C(=O)c2cc(N(C)C)ccc2O1,i
CCCN(C)C[C@@H]1OCCCC[C@@H](C)Oc2ccc(NC(=O)Nc3cccc4ccccc34)cc2C(=O)N([C@H](C)CO)C[C@@H]1C,i
C[C@H]1CCCCO[C@@H](CN(C)Cc2ccc3c(c2)OCO3)[C@@H](C)CN([C@@H](C)CO)C(=O)c2cc(NC(=O)c3ccccc3)ccc2O1,i
C[C@@H]1CN([C@H](C)CO)C(=O)c2cc(/C=C/c3ccccc3)cnc2O[C@H]1CN(C)C(=O)Nc1ccccc1F,i
CC(=O)Nc1ccc2c(c1)C(=O)N(C)[C@@H]1CC[C@@H](CC(=O)NCc3ccccc3Cl)O[C@H]1CO2,i
NCC[C@@H]1CC[C@H](NC(=O)c2ccccc2F)[C@H](CO)O1,i
COc1ccccc1S(=O)(=O)N[C@@H]1C=C[C@@H](CC(=O)NCc2cccc(F)c2)O[C@H]1CO,i
C[C@@H]1CN([C@@H](C)CO)C(=O)Cc2cc(NC(=O)Cc3cn(C)c4ccccc34)ccc2O[C@H]1CN(C)C(=O)Nc1ccc2c(c1)OCO2,i
C[C@@H]1CN([C@H](C)CO)C(=O)c2cc(NC(=O)Nc3ccccc3)ccc2O[C@@H]1CN(C)Cc1ccccc1,i
CCC(=O)N1CC2(C1)[C@H](c1ccccc1)[C@H](CO)N2S(=O)(=O)Cc1ccccc1,+
CCNC(=O)C[C@H]1CC[C@H]2[C@H](COc3ccc(NC(=O)Nc4c(C)noc4C)cc3C(=O)N2C)O1,i
CCCN(C)C[C@H]1Oc2ncc(-c3cccc(C(=O)N(C)C)c3)cc2C(=O)N([C@H](C)CO)C[C@H]1C,i
C[C@@H]1CN([C@H](C)CO)C(=O)c2cccc(NC(=O)C3CCOCC3)c2O[C@@H]1CN(C)Cc1ccc(-c2ccccc2)cc1,i

# (more compounds)
SMILES,FGF22 binding
CN(C)c1ccc2c(c1)[C@H]1C[C@@H](CC(=O)NCc3ccncc3)O[C@@H](CO)[C@H]1O2,i
COC(=O)C[C@H]1CC[C@@H]2[C@H](COc3ccc(NC(=O)c4cc(C)on4)cc3C(=O)N2C)O1,i
COCC(=O)N1C[C@@H]2[C@H](c3ccccc31)[C@@H](CO)N2C(=O)C1CCCC1,i
Cn1cnc(S(=O)(=O)N2CC[C@@H]3[C@@H](CO)Nc4ccc(C#Cc5ccc(F)cc5)cc4[C@@H]32)c1,i
C[C@@H]1CN([C@@H](C)CO)S(=O)(=O)c2ccc(-c3ccncc3)cc2O[C@@H]1CN(C)C(=O)Nc1ccc(C(F)(F)F)cc1,+
CNC(=O)C[C@@H]1CC[C@@H]2[C@@H](COc3ccc(NC(=O)Nc4ccc(F)cc4)cc3C(=O)N2C)O1,i
O=C(C1CCCCC1)N1C[C@@H]2[C@H](c3ccccc31)[C@H](CO)N2CC1CCOCC1,i
C=CCCC1CN(Cc2ccc(OC)cc2)S(=O)(=O)c2c(Oc3ccc(C)cc3)cccc2O1 (stereo not drawn),i
O=C(Cc1ccccc1)N1CC[C@@H]2[C@H](CO)Nc3ccc(-c4ccc(F)cc4)cc3[C@@H]21,i
CC(C)NC(=O)Nc1ccc2c(c1)C(=O)N([C@@H](C)CO)C[C@@H](C)[C@H](CN(C)S(=O)(=O)c1ccccc1)O2,i
CN(C)C(=O)[C@@H]1[C@@H](CO)[C@@H]2Cn3c(ccc(-c4ccccc4)c3=O)[C@@H]2N1CCC(F)(F)F,i
COc1ccc([Si](C)(C)[C@H]2[C@H](CCO)O[C@@]3(C(=O)N(Cc4ccccc4)c4ccc(N5CCOC5=O)cc43)[C@@H]2C)cc1,i
C[C@@H]1CCCCO[C@H](CN(C)S(C)(=O)=O)[C@H](C)CN([C@@H](C)CO)C(=O)c2cc(NC(=O)CCCN(C)C)ccc2O1,i
COc1cccc(CNC(=O)C[C@H]2CC[C@@H](NC(C)=O)[C@@H](CO)O2)c1,i
CN(C)CCCNC(=O)C[C@H]1C=C[C@@H](NC(=O)Cc2cccnc2)[C@H](CO)O1,i
Cc1ccc(S(=O)(=O)N2CC[C@@H]3[C@H](CO)Nc4ccc(-c5ccccc5F)cc4[C@@H]32)cc1,i
O=C(Nc1ccc2c(c1)[C@@H]1C[C@H](CC(=O)N3CCOCC3)O[C@@H](CO)[C@@H]1O2)Nc1ccccc1F,i
CC(C)NC(=O)N(C)C[C@H]1Oc2ccc(NC(=O)Nc3cccc4ccccc34)cc2C(=O)N([C@H](C)CO)C[C@H]1C,i
O=C(C1CCCC1)N1C[C@@H]2[C@H](c3ccccc31)[C@@H](CO)N2C(=O)c1ccccc1F,i
CO[C@H]1CN(C)C(=O)c2ccc(NC(=O)c3ccccc3F)cc2OC[C@@H](C)N(CC2CCOCC2)C[C@@H]1C,i
COc1ccccc1C(=O)Nc1ccc2c(c1)OC[C@H](C)N(C(C)=O)C[C@H](C)[C@@H](OC)CN(C)C2=O,i
C[C@@H]1CN([C@@H](C)CO)S(=O)(=O)c2ccc(-c3ccccc3)cc2O[C@H]1CN(C)Cc1cncnc1,i
COCC(=O)N1C[C@@H](C)[C@@H](OC)CN(C)C(=O)c2ccc(NC(=O)NC(C)C)cc2OC[C@@H]1C,i
C[C@@H]1CN([C@H](C)CO)C(=O)c2cc(N(C)C)ccc2O[C@@H]1CN(C)Cc1ccc(-c2ccccc2)cc1,i
COCC(=O)Nc1ccc2c(c1)OC[C@@H](C)N(C(=O)c1cnccn1)C[C@H](C)[C@@H](OC)CN(C)C2=O,i

# Ordered by length of the SMILES (largest number first): part of the list above
SMILES,FGF22 binding
C[C@H]1CCCCO[C@H](CN(C)C(=O)Nc2ccc(F)cc2)[C@@H](C)CN([C@@H](C)CO)C(=O)c2cc(NC(=O)CCC(F)(F)F)ccc2O1,i
C[C@@H]1CCCCO[C@H](CN(C)S(C)(=O)=O)[C@H](C)CN([C@@H](C)CO)C(=O)c2cc(NC(=O)CCCN(C)C)ccc2O1,i
COc1ccc(S(=O)(=O)Nc2ccc3c(c2)C(=O)N([C@@H](C)CO)C[C@H](C)[C@@H](CN(C)CC2CCCCC2)O3)cc1,i
C[C@H]1CN([C@@H](C)CO)C(=O)c2cc(C#Cc3cccc(F)c3)cnc2O[C@H]1CN(C)CC1CCOCC1,i
COC(=O)N1Cc2ccnnc2CC1c1ccccc1-c1ccccc1 (stereo not drawn),i

# Screening data (PubChem BioAssay)
